From PubChem
HT1080-NT tox: qHTS for induction of synthetic lethality in tumor cells producing 2HG: qHTS for the HT-1080-NT fibrosarcoma cell line; HT-1080-NT fibrosarcoma viability, CellTiter-Glo ATP luminescence, 48 h; Potency, µM (series often up to 46.1 µM), for the others: top-dose activity, negative = less viability, actives largely listed as cytotoxic; hit rate 1.6% among 360,000; AID 686970, 2013;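 also: NT is the 2HG producing partner of a matched IDH1 knockdown line; potency is read from the fitted curve at half-maximal effect; 0% = DMSO-treated cells and -100% = media-only wells without cells; nearly all actives have a fitted effect of over 55% in size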
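Fibrosarcoma NT cells, 750 per well in 5% FBS RPMI, were exposed to compound for 48 hours. Viability: CellTiter-Glo luminescence.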
MCF10A rerep: A quantitative high throughput screen for small molecules that induce DNA re-replication in MCF 10a normal breast cells; MCF 10A DNA re-replication, Hoechst nuclear intensity, 48 h; hit rate 2.9% among 350,000; Potency, µM (highest dose often 46.1 µM), inactives show at the top dose activity, positive = re-replication, usual class: activators; also: potency is read from the fitted curve at half-maximal effect; % of control where 0% means no effect; nearly all actives have a fitted effect of over 50% in size
KB-3-1 cytotox: qHTS assay for MDR1-selective chemotherapeutics: Primary screen using the parental adenocarcinoma cell KB-3-1 | Potency, µM (top dose mostly 46.1 µM), for inactives: at the highest dose activity change, negative = cytotoxic, hits mostly cytotoxic | KB-3-1 viability, CellTiter-Glo ATP luminescence, 72 h | hit rate 1.4% among 400,000; also: potency is read from the fitted curve at half-maximal effect; % is scaled to controls: 0 for no effect and ±100 for the full control effect; nearly all actives have a fitted effect of over 60% in size
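Cytotoxicity measured as CellTiter-Glo luminescence after 72 h at 37 C. Compound titrations were pinned onto drug-naive KB-3-1 parental adenocarcinoma cells grown in DMEM with 10% FBS, and normalized data fitted to concentration-response curves.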
HT1080 IDH1KD tx: qHTS for induction of synthetic lethality in tumor cells producing 2HG: qHTS for the HT-1080-IDH1KD cell line; HT-1080 IDH1 knockdown viability, ATP luminescence, 48 h; Potency, µM (top dose mostly 46.1 µM), inactives show at the highest dose activity, negative = toxicity, actives largely listed as cytotoxic; hit rate 2% among 360,000; AID 686971, 2013;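 also: potency is read from the fitted curve at half-maximal effect; 0% = DMSO wells and -100% = cell-free medium wells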
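After a 2 h attachment period, IDH1KD HT-1080 cells took pin-transferred compound for 48 h at 37 °C; ATP-based luminescence after 10 min room-temperature reagent incubation reported viability.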
IL-1B inflam inh: qHTS for Inhibitors of Inflammasome Signaling: IL-1-beta AlphaLISA Primary Screen | THP-1 LPS/ATP IL-1B secretion, AlphaLISA, 16 h; stronger effect = lower value | activity change, % at 57.5 µM | hit rate 4.7% among 360,000 | AID 743279, 2014; in the data active = activity change below about -50%; inconclusive = mostly about -30% to -49%; also: % is scaled to controls: 0 for no effect and ±100 for the full control effect
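THP-1 cells pretreated 1 hr with compounds (up to 57.5 uM final), then stimulated with LPS (250 ng/mL final) plus ATP (1.25 mM final); secreted IL-1B measured by AlphaLISA after 16 hr, decreased signal indicating inhibition.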
The depositor's hits bear a star; ? = inconclusive; . = no result given; & = joins results of further samples. Unless noted, calls follow the shape of the dose curve; as a rule, active = well fitted curve in the direction sought with a large enough effect; inconclusive = small, poorly fitted or top-dose-only effect, or another doubt; inactive = no such curve, though single readings can be large; an effect the other way counts as inactive or inconclusive. These rows are one share of the data (hit frequency here may not be typical).

SMILES	HT1080-NT tox	MCF10A rerep	KB-3-1 cytotox	HT1080 IDH1KD tx	IL-1B inflam inh
NCCCC(=O)O	?	-11%	0%	-12%	-12
Cc1c2cc(O)c(=O)cc-2oc2cc(O)c(O)cc12	-21%	-1%	?	?	-29
COC(=O)/C=C/c1c(C)[nH]c(=O)[nH]c1=O	18%	2%	-4%	14%	31
CN1CCC[C@@H]1CCO[C@](C)(c1ccccc1)c1ccc(Cl)cc1	?	-18%&28%	-3%	?	?
CCCC(C(=O)OCCN(CC)CC)(c1ccccc1)c1ccccc1	?	-23%&16%	0%	?	-14
CC(C)C[C@H](NC(=O)[C@@H](O)[C@H](N)Cc1ccccc1)C(=O)O	.	1%	.	.	.

3 structures out of the list, arranged by molecular weight, rising:
SMILES	HT1080-NT tox	MCF10A rerep	KB-3-1 cytotox	HT1080 IDH1KD tx	IL-1B inflam inh
COC(=O)/C=C/c1c(C)[nH]c(=O)[nH]c1=O	18%	2%	-4%	14%	31
Cc1c2cc(O)c(=O)cc-2oc2cc(O)c(O)cc12	-21%	-1%	?	?	-29
CCCC(C(=O)OCCN(CC)CC)(c1ccccc1)c1ccccc1	?	-23%&16%	0%	?	-14

Of the compounds above, these have a COOH group:
SMILES	HT1080-NT tox	MCF10A rerep	KB-3-1 cytotox	HT1080 IDH1KD tx	IL-1B inflam inh
NCCCC(=O)O	?	-11%	0%	-12%	-12
CC(C)C[C@H](NC(=O)[C@@H](O)[C@H](N)Cc1ccccc1)C(=O)O	.	1%	.	.	.

Quoted at random: three compounds from above, in no set order.
SMILES	HT1080-NT tox	MCF10A rerep	KB-3-1 cytotox	HT1080 IDH1KD tx	IL-1B inflam inh
Cc1c2cc(O)c(=O)cc-2oc2cc(O)c(O)cc12	-21%	-1%	?	?	-29
CCCC(C(=O)OCCN(CC)CC)(c1ccccc1)c1ccccc1	?	-23%&16%	0%	?	-14
CC(C)C[C@H](NC(=O)[C@@H](O)[C@H](N)Cc1ccccc1)C(=O)O	.	1%	.	.	.
